Screens: PubChem, several laboratories
INS promoter inh: TRM-6 insulin promoter activity inhibition; TRM-6 cells (human fetal islet line), insulin promoter-eGFP reporter, imaging; reporter expression induced with tamoxifen; inhibition, % at 2 µM; 130,000 compounds, 0.9% hits; AID 1273;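 active = inhibition above the mean plus 3 SD, with well images judged a real hit on visual review, cut at about 60% in these data, passing the limit was not always enough; inconclusive = inhibition over the cutoff but images rejected on review; inactive = inhibition not above the cutoff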
HSV augment: increases HSV replication in cells | HSV replication augmentation in cells, fold increase | maximum fold increase | 220,000 compounds, 0.005% hits;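 active = peak rise of 1.5-fold or more in the series; inconclusive = self-fluorescent or not available for retest; tested in PC3 cells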;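 also: first round at 10 µM; read as green reporter fluorescence; hits show the peak of a series up to 25 µM; 1 = signal of infected wells without compound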
RGS16-Gao: RGS16-Galphao interaction regulator (human). bead-based flow cytometry RGS16-Galphao binding, fluorescence; actives lie on both sides. binding response (% of control), % at 10 µM. 220,000 compounds, 0.38% hits. AID 1441;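 active = below 25% or above 175%, edge rows of some plates excepted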;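 also: Galphao activated by GDP with aluminum fluoride before binding; 100% = wells without compound and 0% = beads without RGS; some results beyond the cut were filed as inactive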
Target sequence (O15492 whole entry, looked up): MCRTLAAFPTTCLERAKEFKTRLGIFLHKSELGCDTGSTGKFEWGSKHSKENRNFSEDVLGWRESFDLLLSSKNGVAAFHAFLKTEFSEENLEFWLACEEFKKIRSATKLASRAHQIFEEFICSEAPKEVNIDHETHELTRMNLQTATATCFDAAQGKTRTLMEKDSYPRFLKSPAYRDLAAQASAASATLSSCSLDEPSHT
Target sequence (P09471 whole entry, looked up): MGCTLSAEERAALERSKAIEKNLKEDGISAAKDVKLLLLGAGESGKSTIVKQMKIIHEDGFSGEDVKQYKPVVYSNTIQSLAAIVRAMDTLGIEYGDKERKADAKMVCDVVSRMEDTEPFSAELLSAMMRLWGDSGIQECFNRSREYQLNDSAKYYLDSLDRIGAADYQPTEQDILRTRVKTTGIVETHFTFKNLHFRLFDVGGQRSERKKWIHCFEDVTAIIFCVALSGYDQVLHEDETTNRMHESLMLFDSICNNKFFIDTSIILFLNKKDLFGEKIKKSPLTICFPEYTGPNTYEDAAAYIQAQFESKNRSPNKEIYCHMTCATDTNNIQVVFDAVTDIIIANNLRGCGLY
GALR2 ag: agonists of human galanin receptor 2 (GALR2); O43603; GALR2-expressing cells, agonist activation read-out; activation, %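 (tested at 5 µM)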; 140,000 compounds, 0.48% hits; AID 803;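 active = above mean plus 3 SD of all compounds, about 5% in these data, not always enough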;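 also: 0% = vehicle buffer wells and 100% = reference agonist at full effect; tested in CHO reporter cells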
Target sequence (O43603 whole entry, looked up): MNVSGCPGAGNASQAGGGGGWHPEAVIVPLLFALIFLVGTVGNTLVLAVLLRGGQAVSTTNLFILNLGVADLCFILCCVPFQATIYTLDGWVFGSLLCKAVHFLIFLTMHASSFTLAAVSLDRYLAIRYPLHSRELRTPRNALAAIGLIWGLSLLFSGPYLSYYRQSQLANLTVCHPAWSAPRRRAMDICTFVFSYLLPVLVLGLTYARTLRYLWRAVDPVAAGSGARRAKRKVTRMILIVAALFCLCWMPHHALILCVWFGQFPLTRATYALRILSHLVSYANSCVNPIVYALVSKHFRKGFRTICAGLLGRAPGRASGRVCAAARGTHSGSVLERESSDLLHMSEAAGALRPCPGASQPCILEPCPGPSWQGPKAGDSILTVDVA
PKD1 inh: PKD1 (human) kinase inhibition | Q15139 | 200,000 compounds, 0.056% hits | inhibition, %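 (about 10 µM by stock and volumes)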 | PKD1 kinase fluorescence polarization assay;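 active = inhibition of 50% or more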;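 also: controls were vehicle for no effect and a reference inhibitor for full effect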
INS promoter inh cell count: recorded beside INS promoter inh, whose call it bears; normalized cell count, %; measured here: cell count, toxicity; reference of the scale not given here;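 cells exposed to compound for 48 h; stained nuclei by imaging scaled within each plate; lower means fewer cells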
HSV augment primary fold: further read-out of HSV augment, marked with its call; fold increase; compound at 10 µM; measured here: primary screen fold increase 10 uM; tested in PC3 cells;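 GFP signal in the first replicate; 1 = infected wells without compound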
An asterisk follows results filed as active; i = inactive; ? = inconclusive; . = no result given.

SMILES	INS promoter inh	INS promoter inh cell count	HSV augment	HSV augment primary fold	RGS16-Gao	GALR2 ag	PKD1 inh
OCC1(CC2CCCCO2)CCN(Cc2nc3ccccc3[nH]2)CC1 (stereo unspecified)	.	.	i	1.1	98	.	-1
O=C(/C=C/c1ccc(N2CCOCC2)cc1)c1ccccc1	.	.	i	1	102	.	-1
NS(=O)(=O)c1ccc(NC(=O)c2ccc(CNS(=O)(=O)c3cc(C(F)(F)F)ccc3Cl)cc2)cc1	.	.	i	0.83	100	.	-7
Cc1ccc(-n2c(=O)cc(N3CCC(C)CC3)[nH]c2=O)cc1	57	48	i	1	106	-1.6	2
O=C(Nc1cccc(F)c1)N1CCCC(CNS(=O)(=O)Cc2ccccc2)C1 (stereo unspecified)	.	.	i	1	112	.	-3
CCOc1ccc(NC(=O)/C=C/c2ccccc2)c([N+](=O)[O-])c1	.	.	i	1	108	0.0	-10
CCOC(=O)CSc1nc(C)c2ccc(C)cc2n1	72	107	i	0.88	86	-1.4	-4
COc1ccc(NC(=O)Nc2ccc(Br)cn2)cc1OC	29	149	i	0.92	100	-3.4	-8
c1ccc(Oc2nc3ccccc3n3cccc23)cc1	43	119	i	0.92	95	-2.8	-13
COc1ccc(OC)c(C(=O)/C=C/c2ccccc2C(F)(F)F)c1	16	158	.	.	108	-2.3	-6
COc1ccc(Cn2c(=O)n(Cc3ccco3)c(=N)c3c4c(sc32)COC(C)(C)C4)cc1	.	.	i	1.1	117	-0.6	6
COc1ccc(C2=NN(C(=O)CSc3nnc(-c4ccccc4F)o3)C(c3ccco3)C2)cc1 (stereo unspecified)	.	.	i	1.2	84	0.8	-3
COc1ccc(Nc2nnc(SCC3CCCO3)s2)cc1 (stereo unspecified)	.	.	i	0.98	105	.	3
O=S(=O)(c1ccc(Cl)cc1)N1CCCC1c1nc(-c2cccc(Cl)c2)no1 (stereo unspecified)	-12	136	i	0.78	109	-1.0	6
CCCN(CCC)C(=O)CCSCCC(=O)N(CCC)CCC	9	83	i	0.96	100	0.1	-9
O=C1CNC(=S)N1CCc1ccc(Cl)cc1	.	.	?	.	100	.	.
O=S(=O)(CC(O)CS(=O)(=O)c1ccc(Cl)cc1)c1ccccc1 (stereo unspecified)	.	.	i	0.92	101	.	.
Cc1c(Cl)cccc1NC(=O)c1nc(C)n(-c2cc(OC(C)C)c(Cl)cc2Cl)n1	7	102	i	0.9	105	0.2	8
CCN(CC)CCNC(=O)c1sc2ncn(CC(=O)Nc3ccc(C)c(Cl)c3)c(=O)c2c1C	.	.	i	0.62	97	.	-2
CCOc1ccc2nc(N3C(=O)CNC3=S)sc2c1	.	.	i	0.95	97	.	.
CN(C)CCNc1ncnc2c1sc1nc(-c3ccccc3)c3c(c12)CCCC3	.	.	i	0.7	97	.	.
Cc1cccc(N(CC(=O)NCCSc2nc3ccccc3s2)S(=O)(=O)c2ccccc2)c1	-27	106	i	0.79	102	-0.7	-2
O=C(O)c1cccc(S(=O)(=O)Nc2ccccc2Cl)c1	-37	156	.	.	115	-1.6	-6
Cc1cccc(NC(=O)C2NC(=O)CC2c2ccccc2)c1C (stereo unspecified)	.	.	i	1.1	103	-1.8	-3
COc1cc(NC(=O)c2ccc3c(c2)OCCO3)ccc1NC(=O)c1ccco1	.	.	i	0.78	94	.	-4

Among those listed so far, 2 contain an NH in an aromatic ring.
SMILES	INS promoter inh	INS promoter inh cell count	HSV augment	HSV augment primary fold	RGS16-Gao	GALR2 ag	PKD1 inh
OCC1(CC2CCCCO2)CCN(Cc2nc3ccccc3[nH]2)CC1 (stereo unspecified)	.	.	i	1.1	98	.	-1
Cc1ccc(-n2c(=O)cc(N3CCC(C)CC3)[nH]c2=O)cc1	57	48	i	1	106	-1.6	2

Additional structures.
SMILES	INS promoter inh	INS promoter inh cell count	HSV augment	HSV augment primary fold	RGS16-Gao	GALR2 ag	PKD1 inh
CCOC(=O)N1CCC(NS(=O)(=O)c2ccc(C)cc2)CC1	.	.	i	1	97	.	.
O=C(O)c1ccnc(C(=O)O)c1	.	.	i	1	69	-3.1	12
COc1ccc2cc(CCNC(=O)c3cccc([N+](=O)[O-])c3)c(=O)[nH]c2c1	20	124	i	0.78	98	.	0
Cc1ccc(OC(C)C(=O)N/N=C/c2ccccn2)cc1 (stereo unspecified)	.	.	i	0.85	135	.	6
Cc1c(C(=O)NCc2ccoc2)oc2ccc3c(c12)C(=O)CC(C)(C)O3	16	98	.	.	110	0.2	-5
COc1ccccc1C(=O)N1CCN(Cc2ccc3c(c2)OCO3)CC1	22	76	i	0.86	108	-2.2	-7
CC(=O)Nc1ccc(S(=O)(=O)NCC(=O)OCC(=O)N2CCc3ccccc32)cc1	26	116	i	1.1	102	-2.0	-11
CCOC(=O)Cn1nc(C)c(NC(=O)COc2ccc(OC)cc2)c1C	.	.	i	0.93	106	.	.
O=C(NNC(=S)Nc1ccc(F)cc1)c1ccccc1OC(F)F	27	107	i	0.92	107	-1.1	3
O=C(Nc1cccnc1Cl)c1ccc(=O)oc1	.	.	i	1.4	107	.	.
O=C(COc1ccc(S(=O)(=O)N2CCCC2)cc1Cl)NCc1ccc2c(c1)OCO2	5	165	i	0.91	98	0.8	-9
O=C(N/N=C/c1c[nH]c2ccccc12)c1cccc([N+](=O)[O-])c1	.	.	i	1.1	112	-1.4	3
O=C(NNS(=O)(=O)c1ccc(Cl)cc1)c1cccc(S(=O)(=O)N2CCOCC2)c1	.	.	i	0.9	96	.	.
CC(C)NC(=O)Nc1cccs1	-8	91	i	0.97	103	-1.5	9
O=C(Nc1cccs1)Nc1ccc(F)cc1F	63	108	i	1	106	-2.2	-13
CCn1nnnc1SCC(=O)Nc1nc2ccc(OC)cc2s1	-12	137	i	0.91	103	-1.0	4
Cc1c(O)ccc2c3c(c(=O)oc12)CCCC3	.	.	i	0.92	72	0.4	1
COC(=O)c1ccc(/C=N/N2CCN(Cc3ccc(Cl)cc3)CC2)cc1	.	.	i	0.97	90	.	.
O=C(NS(=O)(=O)c1ccc(Cl)cc1)c1ccccc1	.	.	i	0.93	101	.	3
COc1ccc(CN2C(=O)NC3(CCCc4ccccc43)C2=O)cc1F (stereo unspecified)	7	120	i	0.97	104	.	3
O=C(Nc1ccc([N+](=O)[O-])cc1)N1CCCCC1	.	.	i	0.99	103	.	1
COC(C[C@H](O)[C@H](C)[C@H](O)COCc1ccccc1)OC	.	.	i	0.7	92	.	.
COc1cc(/C=N/NC(=O)CN(CCc2ccccc2)S(=O)(=O)c2ccc(NC(C)=O)cc2)cc(OC)c1OC	-13	45	i	0.93	118	-0.6	-4
CCn1cc(Br)c(C(=O)NC(C)c2ccccc2)n1 (stereo unspecified)	-383	44	i	1.1	104	-1.0	-7
Cn1cccc1Cc1nnc(SCC(=O)Nc2ccc(F)cc2)n1-c1ccc(F)cc1	.	.	i	1.1	98	-0.2	-2
C/C(=N\NC(=O)c1cc(-c2cccs2)nc2ccccc12)c1ccccn1	.	.	i	0.61	101	.	5
COc1cccc(C(=O)NN2C(=S)N(c3ccccc3)C(=O)C2CC(N)=O)c1 (stereo unspecified)	.	.	i	0.64	104	.	.
CONC(=O)Nc1ccccc1[N+](=O)[O-]	.	.	i	1	101	0.4	-3
COCCCNC(=O)CS(=O)(=O)Cc1nc(-c2ccccc2C)oc1C	.	.	i	0.91	100	-0.7	-4
COc1ccc(N(C2CSC2)S(=O)(=O)c2ccccc2)cc1	-39	104	i	1.1	100	-0.7	-8
CCOC(=O)C1CCCN(C(=O)c2cn(CC)c3ccc(S(=O)(=O)N4CCCC4)cc3c2=O)C1 (stereo unspecified)	-35	29	i	0.83	80	-1.6	-9
COc1ccc(NC(=O)c2cccnc2Nc2ccc(OC)cc2)cc1	74*	71*	i	0.81	99	-0.6	-3
c1ccc(CNc2nc(-c3cccs3)nc3ccccc23)nc1	92*	113*	i	1	153	.	-1
Cc1noc(C)c1CSc1ccccc1C(=O)N1CCN(c2ccccc2)CC1	-48	89	i	1.1	100	-2.2	4
COc1ccc(N2CCN(C(=O)c3ccc(N(C)S(=O)(=O)c4ccc(C)cc4)cc3)CC2)cc1	.	.	i	1.1	102	.	-2
CN1CCN(C(=O)c2ccc3c(c2)OCCO3)CC1	-211	68	i	1	101	-1.2	-3
COC(=O)C1=C(C)N(Cc2cccnc2)C(=O)C1	-14	86	i	0.68	92	-1.4	-5
Cc1cccc(S(=O)(=O)Nc2ccc(-c3nc4ccc(C)cc4s3)cc2)c1	16	109	i	0.91	79	1.6	-10
CC(=O)c1cc(-c2nc3ccccc3n2C)n(C)c1	45	92	i	1	102	-2.1	-2
Cc1cc(C(=O)N/N=C/c2ccncc2)c(C)o1	.	.	i	0.93	90	.	.
Cc1ccccc1NC(=O)/C(C#N)=C\c1cn(CC(=O)O)c2ccccc12	25	126	i	1	95	.	-6
CN(C)S(=O)(=O)c1cccc(C(=O)N2CCc3ccccc32)c1	-244	74	i	0.99	99	-2.3	-2
Cc1cc(NC(=O)COC(=O)[C@H](Cc2c[nH]c3ccccc23)NC(=O)c2ccc(F)cc2)no1	46	107	i	1.1	123	-2.8	3
Cc1cccc(-c2c(O)cc(=O)[nH]c2Cl)c1	31	66	.	.	96	.	-6
Cc1ccc(OC(C)C(=O)N2CCc3ccccc32)cc1 (stereo unspecified)	-9	150	i	1	97	-5.3	-2
Cc1ccccc1Cn1ccc(NC(=O)c2nn3cccnc3c2Cl)n1	.	.	i	0.89	104	.	-4
O=C(O)[C@@H](c1ccccc1)N1Cc2ccccc2C1=O	.	.	i	0.9	104	0.1	-3
CCOc1ccc2nc(NCCCNC(=O)c3cc(OC)c(OC)c(OC)c3)c(C#N)cc2c1	.	.	i	0.91	100	.	.
COc1ccc(N(C(=O)c2cccc([N+](=O)[O-])c2)S(=O)(=O)c2ccc3c(c2)n(C)c(=O)n3C)cc1	33	76	i	1.1	101	-0.6	-10
Cc1ccc(Cl)c(OCCCN(C)Cc2ccccc2)c1	.	.	i	0.96	104	.	.

Following part.
SMILES	INS promoter inh	INS promoter inh cell count	HSV augment	HSV augment primary fold	RGS16-Gao	GALR2 ag	PKD1 inh
OC(CNC1CCCC1)COCCOc1ccc(Br)cc1 (stereo unspecified)	.	.	i	0.8	103	.	.
CS(=O)(=O)c1ccc(S(=O)CC(=O)Oc2ccc(Cl)cc2)c([N+](=O)[O-])c1 (stereo unspecified)	-240	14	i	0.89	94	.	-6
COc1ccc(Nc2nc(C)c3ccccc3n2)cc1	46	98	i	0.99	60	-2.2	-19
O=C(O/N=C\c1ccc(N2CCCCC2)c([N+](=O)[O-])c1)c1cccc(C(F)(F)F)c1	18	119	i	1	117	-0.9	-4
Cn1c(=O)n(CC(N)=O)c2ccccc21	-14	118	i	1.2	107	-2.5	-2
O=c1c(C/C=C/c2ccccc2)c(O)ccn1CCc1c[nH]c2ccccc12	30	140	i	1.1	101	.	11
CCOc1ccc(CCNC(=O)CCC(=O)Nc2ccc3nc(N4CCN(C)CC4)cc(C)c3c2)cc1OCC	.	.	i	0.86	101	.	1
O=C(Nc1ccc(NC(=O)c2cccs2)cc1Cl)c1ccco1	-19	100	i	0.77	101	.	-2
CCN1C/C(=C/c2sccc2C)c2nc3ccccc3c(C(=O)O)c2C1	.	.	i	1.4	106	.	.
C=CCOC(=O)C1=C(C)NC(=O)NC1c1cn(-c2ccccc2)nc1-c1cccs1 (stereo unspecified)	-100	85	i	0.78	102	-1.8	-3
O=C(Nc1ccccc1Br)c1ccc(OC(=S)N2CCOCC2)cc1	14	156	i	0.8	97	.	-6
O=C1COc2ccc(C(=O)COC(=O)/C=C/c3cccc(F)c3)cc2N1	.	.	i	1	99	.	.
O=c1c2cc(NC(=S)N3CCCC3)ccc2nc2n1CCCCC2	.	.	i	0.94	99	.	1
COc1ccc(CCNc2nc(-c3ccccn3)cs2)cc1OC	.	.	i	0.93	97	.	.
OCCNCc1cc(Br)ccc1OCc1ccccc1	.	.	i	0.99	82	-3.2	-3

As entered above:
OCCNCc1cc(Br)ccc1OCc1ccccc1 – HSV augment primary fold = 0.99
CCOc1ccc(CCNC(=O)CCC(=O)Nc2ccc3nc(N4CCN(C)CC4)cc(C)c3c2)cc1OCC – PKD1 inh = 1
O=C(Nc1ccccc1Br)c1ccc(OC(=S)N2CCOCC2)cc1 – PKD1 inh = -6
